TDP1 cell CPT: DT40-hTDP1 cell growth loss with CPT; chicken DT40 Tdp1-/-;hTDP1 cells + 20 nM CPT, ATP luminescence, 48 h; Potency, µM (highest dose often 46.2 µM), without a hit: at the top dose activity change, negative = growth inhibition, actives largely listed as inhibitors; 420,000 compounds, 12% hits; AID 686979; also: nearly all actives have a fitted effect of over 55% in size
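Chicken DT40 Tdp1-/- cells stably complemented with human TDP1 were seeded at 400 cells/well in medium containing 20 nM camptothecin, exposed to pin-transferred compounds, and grown at 37 °C for at least 48 hr. Viability was read as ATP luminescence.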
N370S GC: inhibitors or activators of N370S glucocerebrosidase for Gaucher disease. Potency, µM (series often up to 59.4 µM), inactives show at the highest dose activity change, negative = inhibition, actives largely listed as inhibitors. P04062. N370S GC spleen homogenate, 4MU-glucoside fluorescence. 330,000 compounds, 0.092% hits;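 also: 0% = full enzyme activity and -100% = no enzyme basal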
Starred values were filed as active, the others as inactive; ? = inconclusive; / = not tested or not shown; & = joins results of further samples; [ ] = dose if it differs, or a comment. Calls follow the shape of the dose curve; as a rule, active = well fitted curve in the direction sought with a large enough effect; inconclusive = small, poorly fitted or top-dose-only effect, or another doubt; inactive = no such curve, though single readings can be large; an effect the other way counts as inactive or inconclusive. Unless noted, % is scaled to controls: 0 for no effect and ±100 for the full control effect; potency is read from the fitted curve at half-maximal effect.

SMILES	TDP1 cell CPT	N370S GC
CCCOc1cccc(C(=O)Nc2cc(NC(=O)c3ccco3)ccc2OC)c1	?	18%
OC(C#CCN1CCOCC1)c1cccs1 (stereo not given)	10%	10%
CC1CCc2nc(NC(=O)CN3CCOCC3)sc2C1 (stereo not given)	2%	-16%
CCN(CC)C(=O)C(=O)c1cccn1-c1cccc(Cl)c1C#N	-1%	8%
COc1ccc(C(=O)NCC(=O)N/N=C/C=C/c2ccccc2)cc1OC	7%	-10%
Fc1ccc(CN2CCC(Cc3ccccc3)CC2)cc1F	-30%	-8%
COc1cc(/C=N/Nc2cc(C)nc(NS(=O)(=O)c3ccccc3)n2)ccc1O	24%	-21%
S=c1[nH]nc(-c2ccccn2)n1/N=C/c1ccc(Cl)cc1	1%	3%
CC(C)C(=O)Nc1nnc(Cc2c[nH]c3ccccc23)s1	-23%	-10%
Cc1ccc(CN(Cc2ccc(C)o2)C(=S)NCC(=O)O)cc1	-7%	-7%
C=CCN1C(C(=O)c2ccccc2)=C(OC(=O)COc2ccccc2)c2ccccc2S1(=O)=O	?	-1%
Cn1c(=O)oc2cc(S(=O)(=O)N3CCC(C(=O)NCc4ccccc4)CC3)ccc21	-22%&-18%	-2%
COc1ccccc1N1CCN(c2ccc(N3C(=O)CCC3=O)cc2[N+](=O)[O-])CC1	2%	1%
C/C=C/C(=O)OCc1csc(CC(=O)Nc2ccccc2C)n1	-12%	-5%
O=C(c1cccc([N+](=O)[O-])c1)N1CCN(Cc2ccc3c(c2)OCO3)CC1	3%	1%
CCCCCCCCCCSc1n[nH]c(N)n1	-27%	5%
CCOC(=O)c1c(C)[nH]c(C(=O)C(C)Cl)c1C (stereo not given)	?	-3%
CCn1c(C)c(C)c2cc(C(=O)NCCCN3CCOCC3)ccc21	3%	-3%
CCc1ccc(OCC(=O)Nc2nnc(-c3ccco3)s2)cc1	3%	-15%
COc1cccc(/C=N/NC(=O)C(C)n2nnc3ccccc32)c1 (stereo not given)	?	16%

Compounds shown so far containing a halogen, in the order listed:
SMILES	TDP1 cell CPT	N370S GC
CCN(CC)C(=O)C(=O)c1cccn1-c1cccc(Cl)c1C#N	-1%	8%
Fc1ccc(CN2CCC(Cc3ccccc3)CC2)cc1F	-30%	-8%
S=c1[nH]nc(-c2ccccn2)n1/N=C/c1ccc(Cl)cc1	1%	3%
CCOC(=O)c1c(C)[nH]c(C(=O)C(C)Cl)c1C (stereo not given)	?	-3%

More records follow.
SMILES	TDP1 cell CPT	N370S GC
COc1cc(OC)c2cc[nH]c2c1	-4%	-9%
CCOC(=O)C(CC)Sc1nc2c(c(=O)[nH]c(=O)n2C)n1C/C=C(/C)Cl (stereo not given)	7.3µM*	26%
O=C(NCc1ccccc1Cl)c1csc2c1CCCCC2	?	7%
CC1C/C(=N/N2C(=O)CSC2=S)CC(C)(C)C1 (stereo not given)	-39%	4%
Cc1cccc2cc(C#N)c(NCCCn3ccnc3)nc12	-4%	2%
COc1ccc(OC)c(NC(=S)Nc2ccccc2)c1	0%	-9%
CCCNC(=O)NC(=O)COC(=O)c1ccc(OC)c(S(=O)(=O)N2CCCc3ccccc32)c1	?	-10%
CC(C)CCn1c(CN2CCN(c3cccc(Cl)c3)CC2)nc2c1c(=O)n(C)c(=O)n2C	?	-4%
O=C(CCc1nc2ccccc2[nH]c1=O)OCc1ccc(S(=O)(=O)N2CCOCC2)cc1	?	0%
CCN(CC(=O)Nc1c(F)cccc1F)C(=O)CNC(=O)C1CCCCC1	-5%	6%
Cc1c(CCC(=O)NCCCn2ccnc2)c(=O)oc2cc3occ(C(C)(C)C)c3cc12	-25%	-19%
COc1ccc(C(=O)Nc2cccc3nc(C)ccc23)cc1OC	?	-7%
O=C(Nc1cccc(F)c1)c1ccccc1-c1ccccc1	?	-1%
Cc1cccc(Oc2ncc(-c3ccc(Cl)cc3)cn2)c1	-3%	9%
Cc1oc(CC(C)C)c(CN2CCCC2)c1C(=O)O	-1%	-5%
OCCOc1cccc(CN2CCC(CO)(CCOc3ccccc3)CC2)c1	-29%	-6%
Cc1ccc(N(C)S(=O)(=O)c2ccc3c(c2)CC(C)N3C(=O)C2CC2)cc1 (stereo not given)	?	3%
O=C(NCc1ccccc1Cl)C1CCC(=O)N1Cc1ccc(F)cc1 (stereo not given)	16%	-10%
Cc1cccc(NC(=O)COC(=O)Cc2cccc(C(F)(F)F)c2)c1C	0%	5%
O=C(NCc1ccco1)c1cccnc1Cl	-1%	5%
CC(Oc1ccc2c3c(c(=O)oc2c1)CCC3)C(=O)NCc1ccccn1 (stereo not given)	?	12%
O=c1c2ccccc2ncn1-c1cccc(Cl)c1	4%	-6%
Cc1nc(CNS(=O)(=O)c2cc(C)c(C)cc2C)cs1	4%	9%
Cc1cccc(NC(=O)CN2C(=O)S/C(=C\c3ccccn3)C2=O)c1	?	1%
CCCCCc1nnc(NC(=O)c2ccc(=O)n(C)n2)s1	9%	-9%
CCOC(=O)c1cc(C(=O)OCC)cc(-n2c(C)cc(C(=O)CN3CCOCC3)c2C)c1	-12%	-3%
CC(=O)Nc1ccccc1NC(=O)c1cccc2ccccc12	1%	-6%
Cc1cc(C)cc(NC(=S)NC(=O)CCN2C(=O)c3ccccc3C2=O)c1	-28%	14%
Cc1cccc(-n2c(N)cc(=O)nc2SCC(=O)Nc2nnc(C)s2)c1	7%	0%
CC(=O)Nc1ccc(OC(=O)c2ccc(Br)c([N+](=O)[O-])c2)cc1	-25%	15%
CCOC(=O)N1CCC(Nc2c(Nc3ccc(F)cc3)c(=O)c2=O)CC1	-18%	-16%
Cc1cc(C)nc(NC(=O)Nc2ccc3c(c2)OCO3)c1	-19%	?
O=C(N/N=C/c1cccnc1)c1cccc(NC(=O)c2ccccc2Cl)c1	-12%	-20%
O=C(Nc1ccc(N2CCCC(O)C2)cc1)c1snc2c(=O)[nH]cnc12 (stereo not given)	-17%	1%
COc1ccc(/C=C/C(=O)O)cc1S(=O)(=O)N1CCCC1	17%	-7%
Cn1c(NC(=O)c2ccc(Cl)cc2Cl)cc(=O)n(C)c1=O	-10%	-1%
COc1ccc(N2CCN(C(=O)COC(=O)c3cccc(S(=O)(=O)Nc4cccc(C)c4)c3)CC2)cc1	16µM*	2%
Cc1ccccc1-n1cc(CNC(=O)CC2C(=O)NCCN2C/C=C/c2ccccc2)cn1 (stereo not given)	?	-14%
Cc1cc(=O)n2nc(N3CCCC3C(=O)Nc3cccc(F)c3)sc2n1 (stereo not given)	0%	2%
Cc1cccc(NC(=O)CSCC(=O)OCc2ccccn2)c1	-6%	-5%

Record cards (already shown). Values in the order: TDP1 cell CPT	N370S GC
CCOC(=O)N1CCC(Nc2c(Nc3ccc(F)cc3)c(=O)c2=O)CC1 is entered as -18%	-16%
CC(Oc1ccc2c3c(c(=O)oc2c1)CCC3)C(=O)NCc1ccccn1 (stereo not given) is entered as ?	12%
O=C(Nc1ccc(N2CCCC(O)C2)cc1)c1snc2c(=O)[nH]cnc12 (stereo not given) is entered as -17%	1%
Cc1cccc(NC(=O)CSCC(=O)OCc2ccccn2)c1 is entered as -6%	-5%

Copied from the list.
CC(Oc1ccc2c3c(c(=O)oc2c1)CCC3)C(=O)NCc1ccccn1 (stereo not given) @ N370S GC = 12%
O=c1c2ccccc2ncn1-c1cccc(Cl)c1 @ TDP1 cell CPT = 4%
O=C(Nc1ccc(N2CCCC(O)C2)cc1)c1snc2c(=O)[nH]cnc12 (stereo not given) @ TDP1 cell CPT = -17%

(more compounds)
SMILES	TDP1 cell CPT	N370S GC
COc1ccc(C)cc1NC(=O)C1CCN(S(=O)(=O)c2cccc3nonc23)CC1	-16%&-20%	-10%
COc1ccc(-n2nc3cc(C)c(N)c(Br)c3n2)cc1	?	3%
Cc1ccc(C(=O)N2CCCCC2C(=O)O)o1 (stereo not given)	1%	-10%
CCOC(=O)C1CCCN(c2nc(C)nc3c2oc2ccccc23)C1 (stereo not given)	15µM*	7%
O=c1c2[nH]c3ccccc3c2nc2n1CCCS2	-6%	-22%
CNC(=S)Nc1cccc([N+](=O)[O-])c1	-2%	9%
O=C(Nc1ccccc1)c1cccc(S(=O)(=O)NC2CCCC2)c1	-21%	-8%
CCOc1ccnc(OCC)c1Br	3%	15%
CSc1cccc(NC(=O)C2CCN(C(=O)c3ccccc3C)CC2)c1	18µM*	-10%
Cc1ccc(-c2nnn(CC(=O)Nc3ccc4nn(-c5ccccc5)nc4c3)n2)o1	-25%	-3%
Cc1noc(C)c1COC(=O)c1ccc(N(C)C)cc1	0%	23%
O=c1c2cc3c(=O)n(CC4CCCO4)c(=O)c3cc2c(=O)n1CC1CCCO1 (stereo not given)	1%	-2%
CCOc1ccc(S(N)(=O)=O)cc1-c1nc2c(C(C)(C)C)nn(C)c2c(=O)[nH]1	?	27%
Cn1c(N)c(C(=O)COC(=O)c2ccc3c(c2)OCCO3)c(=O)n(C)c1=O	10%	12%
CNS(=O)(=O)c1ccc(C(=O)NCC(=O)NCC2COc3ccccc3O2)cc1 (stereo not given)	3%	/
COc1cccc(OCC(O)CN2CC(C)CC(C)C2)c1 (stereo not given)	-15%	8%
Cc1ccc(CSc2nc3ccccc3c(=O)n2CCCC(=O)NCc2ccco2)cc1	?	5%
CCC1CCCCN1C(=O)CCc1nnc(Cc2cc(OC)ccc2OC)o1 (stereo not given)	-12%	8%
O=C1CSC(c2ccccc2[N+](=O)[O-])N1c1ccc(O)cc1 (stereo not given)	-16%	4%
Cc1ccc(S(=O)(=O)Cc2sc3ccccc3[n+]2C)cc1	-25%	3%[12.8 µM]
CC(C)OC(=O)CSc1nc(C(C)C)nc2ccccc12	-6%	4%
CSc1nc(Cl)cc(Nc2ccc(O)cc2)n1	?	-25%
O=S(=O)(c1ccc(F)cc1)N1CCN(S(=O)(=O)c2cc(F)ccc2F)CC1	?	-1%
O=C(NCc1ccccc1)NC1(C(=O)Nc2ccc3c(c2)OCCO3)CCCCC1	?	-6%
CC(=O)Oc1ccc(/C=C2\C=C(c3ccc(C)cc3)OC2=O)cc1	2%	-4%
CCOC(=O)c1sc(NC(=O)c2cccc(S(=O)(=O)N(CC)CC)c2)cc1C	2.6µM*	12%
COc1ccc(C(=O)Nc2ccnn2C2CCN(C(=O)c3cnsn3)CC2)cc1	-16%	4%
O=C(Nc1nccs1)c1ccc(-c2ccc(Cl)cc2Cl)o1	23%	-17%
COc1cc(OCC(N)=O)cc(OC)c1OC	10%	9%
CCN(CC)C(=O)COc1cccc2ccccc12	-4%	-10%
CC1C(=O)N2CCCc3cc(NC(=O)c4ccccc4F)cc1c32 (stereo not given)	4%	-2%
O=C(c1ccc(Cl)cc1)N1CCN(c2cc(=O)[nH]nc2-c2ccccc2)CC1	-17%	12%
COC(CNC(=O)c1cc(C(=O)c2c(-c3c(Cl)cccc3Cl)noc2C)c[nH]1)OC	-18%	?
COC(=O)C1=CN(CCCN2CCCC2=O)C=C(C(=O)OC)C1c1cccs1	3%	?
Cn1c(SCc2ccc([N+](=O)[O-])cc2)nnc1-c1ccncc1	-3%	-6%
COC(=O)c1ccc(C(=O)OC)c(NC(=O)CN2CCN(c3ccccc3OC)CC2)c1	?	-15%
C=CCN(C(=O)CNC(=O)c1ccco1)C(C(=O)NC1CCCCC1)c1ccccc1 (stereo not given)	-19%	3%
Cc1ccc(C2(C)NC(=O)N(CC(=O)NCc3ccccc3Cl)C2=O)cc1 (stereo not given)	-6%	-15%
CCc1sc(NC(=O)COC)nc1-c1ccccc1	-14%	-10%
Nc1cccc(CCc2nc3cc4ccccc4cc3[nH]2)c1	3.3µM*	-6%
Cn1c(NN)nc2c1c(=O)n(Cc1ccccc1)c(=O)n2C	3%	-8%
O=C1C(C23CC4CC(CC(C4)C2)C3)C(=O)N(c2ccccc2)N1c1ccccc1	-22%	2%
O=C(O)C1CCN(C(=O)c2ccco2)CC1	2%	-9%
OC(CNCC(c1ccco1)N1CCCCC1)c1ccccc1 (stereo not given)	16%	-4%
C[C@H]1CN=C(N(C)C)N1CC1CCC(C(C)(C)C)CC1 (stereo not given in full)	13µM*	-16%
Cc1cc(C)c(S(=O)(=O)NCc2cccs2)cc1C	6%	0%
O=C(Nc1ccon1)c1ccc(S(=O)(=O)N2CCCCCC2)cc1	12%	-12%
Cc1ccc(OCC(=O)N(C)CCc2ccccn2)cc1	-9%	-3%
CCCCNC(=O)C(=O)N/N=C/c1ccc(OCc2ccccc2)cc1	-22%	1%
O=c1nc2c(-c3cccc(Br)c3)n[nH]n2c2ccccc12	?	-3%
Cc1ccnc(SCC(=O)c2cccc([N+](=O)[O-])c2)n1	-5%	-5%
CCN(CC)C(=O)CSc1nc2cc(OC)c(OC)cc2c(=O)n1Cc1ccc(Cl)cc1	?	-2%
O=C(NNC(=O)c1ccc([N+](=O)[O-])cc1)c1ccc(NS(=O)(=O)c2cccs2)cc1	4%	/
CCCCN(C(C)=O)c1c(N)n(CCC)c(=O)n(CC(=O)Nc2cc(Cl)cc(Cl)c2)c1=O	8%	-8%
CC(C)(C)c1cc(C(=O)N/N=C/c2ccc(-c3ccccc3[N+](=O)[O-])o2)n[nH]1	?	-3%
Cc1ccc(S(=O)(=O)N(C)c2ccc(C(=O)N(CC(C)C)C3CCS(=O)(=O)C3)cc2)cc1 (stereo not given)	?	-16%
COc1ccc(OC)c(NC(=O)CSc2nnc(CNc3ccc(C)cc3C)o2)c1	?	1%
Cc1cccc(C)c1OCCCCN1CCNCC1	-13%	-7%
Cc1ccc(/C=C/S(=O)(=O)NCc2ccc(F)cc2)cc1	6%	1%

Compound activity: PubChem, National Center for Advancing Translational Sciences (NCATS)

These rows are one share of the data, and most or all hits are left out here.
